Screens deposited in PubChem by National Center for Advancing Translational Sciences (NCATS).
gsp antag = gsp mutant antagonism; gsp-mutant cells, cAMP HTRF, 30 min; control for the full effect not named in the record; Potency, µM (top dose mostly 76.9 µM), without a hit: top-dose activity change, negative = inhibition, usual class: inhibitors; hit rate 0.4% among 340,000; AID 624288; active = falling curve of any shape with a large fitted effect; inconclusive = falling curve, mostly with a smaller effect; inactive = flat or rising curve; cell line not stated here;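 further: intracellular cAMP measured with PDE inhibitor Ro 20-1724 present during compound exposure; potency means the concentration at half of the fitted maximal effect; on the % scale 0 is the no-effect control and ±100 the full control effect; nearly all actives have a fitted effect of over 65% in size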
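HTRF cAMP measurement after 30 min RT detection following 30 min, 37C compound treatment alongside […] (added as 300 uM solution) in G418-selected cells seeded at 2000/well and grown 16–24 h.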
D2 agonist = agonists of human D2 dopamine receptor (beta-arrestin); P14416; DiscoveRx PathHunter D2 beta-arrestin, luminescence, 90 min; 100% = 57 uM dopamine signal; activation, % (no concentration beside the values); hit rate 0.084% among 360,000; AID 624465; in the data active = activation above about 40%; inconclusive = about 15% to 40%; inactive = below about 15%; further: compound concentration not given in the record; the text of the record calls up to 30% inactive
Target sequence (P14416 whole entry, looked up): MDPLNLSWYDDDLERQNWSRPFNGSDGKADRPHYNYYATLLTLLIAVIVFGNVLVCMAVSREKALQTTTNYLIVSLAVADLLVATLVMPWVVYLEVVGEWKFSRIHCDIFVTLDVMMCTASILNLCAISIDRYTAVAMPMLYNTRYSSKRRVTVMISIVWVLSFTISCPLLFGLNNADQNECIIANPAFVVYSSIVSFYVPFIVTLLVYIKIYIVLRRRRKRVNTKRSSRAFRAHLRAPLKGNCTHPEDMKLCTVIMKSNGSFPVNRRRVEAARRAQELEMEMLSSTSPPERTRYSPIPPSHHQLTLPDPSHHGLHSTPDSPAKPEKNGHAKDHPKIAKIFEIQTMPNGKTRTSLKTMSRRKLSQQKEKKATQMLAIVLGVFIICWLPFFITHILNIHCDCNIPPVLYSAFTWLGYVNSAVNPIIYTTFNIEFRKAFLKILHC
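Agonist mode: compounds alone added to overnight-plated D2 PathHunter cells for 90 min at 37 C, with 57 uM final dopamine (EC100) defining full response. Beta-arrestin recruitment detected by chemiluminescent reagent, read after 1 h at ambient temperature.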
Six1-Eya2 inh = Six1/Eya2 interaction inhibition. AID 651725. activity change, % (concentration not given with the values). Q15475+O00167. AlphaScreen GST-Six1/His-Eya2 binding, biochemical; active compounds read low; control for the full effect not named in the record. hit rate 0.56% among 360,000; in the data active = activity change below about -65%; inconclusive = about -30% to -65%; inactive = above about -30%; further: on the % scale 0 is the no-effect control and ±100 the full control effect
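Compounds are tested against tagged Six1 and Eya2 proteins bridged by glutathione donor and nickel acceptor beads; after a one-hour incubation at 37 °C without light, AlphaScreen emission is recorded.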
D2 potentiator = potentiates the human D2 dopamine receptor allosterically; DiscoveRx D2 beta-arrestin cells, luminescence, 90 min; 100% = 57 uM dopamine signal; potentiation, % (no concentration beside the values); hit rate 0.23% among 360,000; active = potentiation of 50% or more; inconclusive = 30% to 50%; inactive = 30% or less;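 further: compound concentration not given in the record; tested on top of an EC20 dose of dopamine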
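PathHunter beta-arrestin assay in DiscoveRx D2 cells. Compounds were added with an EC20 of dopamine (50 nM final) for 90 min at 37 deg C. Luminescence was read 1 h after detection reagent, with 57 uM dopamine as the EC100 control.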
gsp agonist = gsp mutant agonism. Potency, µM (titrated, usually from 76.9 µM), without a hit: at the top dose activation (cAMP increase), actives largely listed as activators. gsp mutant cells, cAMP HTRF, 30 min; control for the full effect not named in the record. AID 624287. hit rate 0.13% among 340,000; active = well fitted activation curve with a large enough effect; inconclusive = small, poorly fitted or top-dose-only effect, or another doubt; inactive = no such curve, though single readings can be large or run the other way; cell line not stated here;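 further: phosphodiesterase inhibitor Ro 20-1724 added with compounds to block cAMP breakdown; potency means the concentration at half of the fitted maximal effect; nearly all actives have a fitted effect of over 60% in size; about a fifth of the inactives were tested at one dose only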
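Cells in DMEM/10% FBS with G418 were pretreated with compounds in DMSO plus […] (300 uM stock) for 30 min at 37C. cAMP was measured by HTRF (cAMP-d2 plus anti-cAMP antibody-K) after 30 min at room temperature.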
CtBP-E1A blk = CtBP/E1A binding inhibition; AlphaScreen GST-E1A/His-CtBP binding, 1536-well; active compounds read low; control for the full effect not named in the record; activity change, % (test concentration not listed); hit rate 0.49% among 340,000; in the data active means activity change below about -65%; inconclusive means about -30% to -65%; inactive means above about -30%; further: on the % scale 0 is the no-effect control and ±100 the full control effect
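Protein mix (5X: 125 nM each GST-E1A, His-CtBP) was incubated with pinned compound 2 h at 37 deg C in dark, in 50 mM Tris pH 8.0 buffer with 300 mM NaCl. Glutathione donor and nickel acceptor beads followed; AlphaScreen signal read after 1 h.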
Numbers without * were called inactive; ? = inconclusive; · = no result given; [ ] = another dose, or the depositor's remark.

SMILES	gsp antag	D2 agonist	Six1-Eya2 inh	D2 potentiator	gsp agonist	CtBP-E1A blk
CCOC(=O)N1CCC(NS(=O)(=O)c2ccc3c(c2)C(C)(C)C(=O)N3C)CC1	-1%	-4.5	-1	-6	-25%	6
O=C(CN1C(=O)C2CC=CCC2C1=O)NCC1COc2ccccc2O1 (stereo not given)	4%	-1.8	3	6	14%	8
CC(C)CNc1c(N)c(=O)oc2ccccc12	-14%	-1.5	19	7	-16%	46
COc1ccc(/C=N/OCc2ccc(Br)cc2)c(OC)c1	6%	-5.2	54	-10	4%	·
COc1ccc2nccc(C(N)=O)c2c1	17%	-1.2	12	-1	-11%	9
CCCOc1ccc2c(=O)c(N3C(=O)c4ccccc4C3=O)c(C)oc2c1	-13%	-0.8	-2	-7	22%	7
COC(=O)c1c(C)[nH]c(C)c1-c1ccccc1	0%	-1.7	-9	-15	7%	-2
CC(C)Oc1ccccc1OCCN(C)C	12%	-2.0	-3	-36	-59%	0
COc1ccc(CC(=O)Nc2nc(-c3cccnc3)cs2)cc1	-12%	1.4	7	10	-2%[15.4 µM]	-6
CCOC(=O)c1c(CSc2ccc(C)cc2)oc2ccc(O)cc12	-3%	-0.1	5	-5	-7%	8
O=S(=O)(c1ccc(Br)s1)N1CCN(c2ccnc3cc(Cl)ccc23)CC1	-12%	-0.6	-5	-2	0%[15.4 µM]	-2
CC1=C(C(N)=O)C(c2cccnc2)n2nc(-c3cccc(Cl)c3)nc2N1 (stereo not given)	10%	-1.6	-5	-5	0%	-5
Cc1cc(C(=O)NCc2ccc(S(N)(=O)=O)cc2)c(C)o1	6%	-1.8	1	-4	-37%[inhibitor]	-1
O=C(Cc1ccccc1)Nc1cc2c(cc1Cl)OCCCO2	16%	1.7	-1	0	-34%[inhibitor]	5
Cc1cc[n+](CC(=O)N2CCCc3ccccc32)cc1	6%	2.5	4	-11	-3%[15.4 µM]	6
CCOC(=O)c1nnn(-c2nonc2-n2cccc2)c1-c1cccc([N+](=O)[O-])c1	-3%	9.9	?	7	-49%[15.4 µM]	-22
C=CCNC(=S)NNC(=O)c1ccccc1	10%	-3.5	4	-16	-4%	-4
CC(=O)Nc1nc(NC(=O)/C=C/c2ccccc2)n(-c2ccccc2)n1	4%	-4.9	-23	-24	15%	-24
O=C1N=c2ccc(Br)cc2=C1c1sc(=S)n(NS(=O)(=O)c2ccccc2)c1O	-16%	4.6	-8	-3	-29%	2
CN(CC(=O)NCC(=O)Nc1ccc(F)cc1)C1CCS(=O)(=O)C1 (stereo not given)	10%	-2.1	7	5	29%	·
COc1ccccc1OCc1ccc(C(=O)NCc2cccnc2)o1	5%	-1.6	-1	-16	11%	-1
O=C(Nc1ccc(S(=O)(=O)N2CCCCC2)cc1)C1CCCCC1	5%	4.6	-7	-9	-4%	-24
Cc1cc(=O)c(C(=O)Nc2cccc(C(=O)NC3CC3)c2)nn1-c1ccccc1	·	-1.1	3	-7	2%	3
O=C(COC(=O)c1cccc2c1C(=O)c1ccccc1C2=O)NC1CCCCC1	-6%	?	?	?	-6%[15.4 µM]	?
Cc1cccn2c(=O)c3cc(C#N)c(=N)n(CCCN4CCOCC4)c3nc12	3%	-8.2	-11	-30	?	-3
Cn1nc(C(F)(F)F)c(-c2ccccc2)c1N	-3%	-2.6	-3	-5	2%[15.4 µM]	-1
COc1ccc(N2CC(C(=O)NCCS(=O)(=O)N3CCN(c4ccccc4)CC3)CC2=O)cc1 (stereo not given)	14%	-2.1	0	-8	15%	4
CCCCN(C)C(=O)c1cn(-c2cccc(OC)c2)c(=O)c2ccccc12	6%	7.5	0	-2	-31%[inhibitor]	9
CC(C)(C)NC(=O)C(c1ccncc1)N(C(=O)Cn1nnc(-c2ccc(F)cc2)n1)c1ccc(F)cc1 (stereo not given)	-19%	-1.5	6	0	-4%	-5
C/C=C/c1cccc(-c2nc(C(=O)NC3CCCC3)cc3c2[C@@H](CCO)N(S(=O)C(C)(C)C)C3)c1 (stereo not given in full)	·	-4.4	-5	-3	·	-8

Of the compounds above, 3 contain a Cl atom.
SMILES	gsp antag	D2 agonist	Six1-Eya2 inh	D2 potentiator	gsp agonist	CtBP-E1A blk
O=S(=O)(c1ccc(Br)s1)N1CCN(c2ccnc3cc(Cl)ccc23)CC1	-12%	-0.6	-5	-2	0%[15.4 µM]	-2
CC1=C(C(N)=O)C(c2cccnc2)n2nc(-c3cccc(Cl)c3)nc2N1 (stereo not given)	10%	-1.6	-5	-5	0%	-5
O=C(Cc1ccccc1)Nc1cc2c(cc1Cl)OCCCO2	16%	1.7	-1	0	-34%[inhibitor]	5

(listing goes on)
SMILES	gsp antag	D2 agonist	Six1-Eya2 inh	D2 potentiator	gsp agonist	CtBP-E1A blk
CNC(=O)CSc1nc(SC)ns1	3%	-4.2	-2	-6	23%[15.4 µM]	5
COc1cccc(Nc2nc(C(N)C(C)C)cs2)n1 (stereo not given)	·	-2.9	-4	-10	·	?
O=c1c2ccccc2nc2n1CCN2Cc1ccc(Cl)cc1	?	-1.9	-1	4	-34%[inhibitor]	-5
Cn1c(=O)c2c(nc(NCC3CCCC(CN)C3)n2Cc2ccc(Cl)cc2Cl)n(C)c1=O (stereo not given)	-2%	?	7	-2	1%	·
COc1ccc(S(=O)(=O)N(C)CC(=O)NCCC2=CCCCC2)cc1	7%	-3.0	2	-3	-88%[inhibitor]	1
CC(C)C(=O)NC(=S)Nc1ccccc1C(=O)Nc1ccccc1	-2%	-2.4	11	-22	-10%	11
CC(C)OC(=O)/C(=C\c1cccc2ccccc12)NC(=O)c1ccccc1	-19%	0.7	-1	-2	5%[15.4 µM]	-3
CC(C)CNC(=O)c1ccccc1NC(=O)Nc1ccccc1	11%	2.2	4	-1	15%	3
CC1CN(C(=O)CCC(=O)NCCCN2C(C)CCCC2C)c2ccccc2O1 (stereo not given)	7%	-4.7	0	-8	-49%[inhibitor]	5
Cc1cc(NC(=O)CCNS(=O)(=O)c2cc(Br)cnc2N)ccc1Br	?	-0.2	-2	-18	17%	14
CCC12CN3CCN(CC(C3)/C1=N\NC(=O)c1ccc(C(C)(C)C)cc1)C2	2%	-7.9	3	-1	-35%[inhibitor]	7
COCCCNC(=O)c1csc([C@@H]2C[C@H](O)[C@@H](CO)O2)n1	·	1.1	8	-8	·	5
O=C(c1ccc2c(=O)n3c(nc2c1)CCC3)N1CCN(S(=O)(=O)c2ccccc2Br)CC1	-9%	-4.2	-1	-3	13%	·
COc1cc(C(=O)OCC(=O)Nc2cc(C)on2)ccc1OCc1ccccc1Cl	7%	-1.9	3	-6	-14%	-1
COc1ccccc1NC(=S)NCCc1ccc(S(N)(=O)=O)cc1	·	1.5	-1	-29	-3%[15.4 µM]	-1
COC(=O)c1ccccc1NC(=O)COC(=O)c1ccco1	-2%	-10	-12	-4	5%[15.4 µM]	-1
Cc1ccc(CNC(=O)CSc2nnc3n2CCCCC3)cc1	2%	-4.5	7	-3	?	·
O=C(NCc1cccc(C(F)(F)F)c1)C1CC(c2ccc(C(F)(F)F)cc2)=NO1 (stereo not given)	-7%	0.0	4	-1	-28%	·
Cc1ccnc(SCC(=O)NC2CCCCCC2)n1	2%	2.4	3	-1	6%	4
Cc1c(Nc2nc(-c3ccc(Cl)cc3)cs2)c(=O)n(-c2ccccc2)n1C	-7%	-3.2	-4	-4	9%	-14
COc1cccc(CN2CC(C(=O)N3CCOCC3)CCC2=O)c1 (stereo not given)	14%	-2.7	1	-9	13%	2
CC(C)(C)C1CCC(C(=O)NCCc2ccc(S(N)(=O)=O)cc2)CC1 (stereo not given)	-5%	-2.4	11	-4	-5%	8
CC(C)(C)SCCSC1=CC(=O)CC(c2ccccc2)C1 (stereo not given)	-4%	-0.5	6	-10	8%[15.4 µM]	11
O=C(O)c1cccnc1SCc1cccc(Br)c1	-4%	-5.3	-17	2	3%	0
O=S(=O)(NCc1ccncc1)c1ccc(F)c(F)c1	·	-2.4	4	-12	-45%	5
CC1(C(=O)NS(=O)(=O)Cc2cccc(Cl)c2)CCN1C(=O)Cc1ccc(Cl)cc1Cl (stereo not given)	·	-4.1	22	1	·	6
CCCCCCC(C)n1cc(C(C)=O)c(=O)[nH]c1=O (stereo not given)	4%	-0.7	2	-5	-5%	1
COc1ccccc1CNC(=O)C(=O)c1cn(CC(=O)N2CCCC2)c2ccccc12	-16%	1.8	-3	-13	22%	-9
O=C(NC1CCCC1)c1cc(COc2ccc3ncccc3c2)on1	-22%	1.1	2	1	10%	1
COCCCNC(=S)N/N=C/c1ccc(O)cc1O	13%	0.8	-90*	0	1%[15.4 µM]	-93*
C=C1CCC2[C@](C)(CO)[C@H](O)CC[C@@]2(C)[C@@H]1C/C=C1\C(=O)OC[C@H]1O (stereo not given in full)	-6%	-1.8	0	-27	·	2
Cc1ccc(S(=O)(=O)N2CCC(C(=O)OCC(=O)N(C)C3CCS(=O)(=O)C3)CC2)cc1C (stereo not given)	6%	-1.4	4	-3	4%	-12
CCc1c(C)nc(N2CCN(c3ccccc3F)CC2)[nH]c1=O	-1%	1.6	-1	-9	-2%	·
O=C(Cc1ccc([N+](=O)[O-])cc1)Nc1cccc(C(F)(F)F)c1	2%	2.6	0	-5	?	3
Cc1ccnc(NCn2nnc3ccccc32)c1	4%	-2.5	0	-1	-50%[inhibitor]	8
COc1ccc(OC)c(N/C(C)=C/C(=O)c2ccncc2)c1	3%	1.7	-24	22	8%[15.4 µM]	-2
COc1cc2c(cc1OC)CN(C(=O)CSc1ccccc1C)CC2	-1%	-4.2	0	-13	-2%[15.4 µM]	-1
COc1ccc(CN2C(=O)CCC2(C)C(=O)NC2CCCC2)c(OC)c1 (stereo not given)	-5%	-6.4	10	-5	0%	-2
Cc1onc(-c2ccccc2Cl)c1C(=O)NC1CCCCCC1	-7%	-0.8	0	-4	-11%	3
Cn1nccc1C(=O)Nc1ccc2c(c1)OCCO2	16%	-5.1	0	-2	?	5
COc1ccccc1OCCC(=O)OCC(=O)NCc1ccc(Cl)cc1	10%	-2.4	5	-9	7%[15.4 µM]	-14
Cc1nnn(C23CC4CC(CC(C(=O)NN)(C4)C2)C3)n1	5%	-2.1	-16	-19	?	-6
O=C(/C=C/c1ccc(S(=O)(=O)N2CCOCC2)cc1)N1CCN(c2ccc(F)cc2)CC1	-24%	1.5	1	-4	3%[15.4 µM]	-3
CCc1nc(-n2[nH]c(=O)c3ccccc3c2=O)c2c3c(sc2n1)CCCC3	?	-2.9	1	-3	-23%	0
Cc1ccc(NC(=O)CSc2nnc(NC(=O)CN3CCOCC3)s2)cc1	-4%	1.8	-1	1	-18%	-10
O=C(Nc1ccccc1F)c1ccc2ncsc2c1	-13%	-7.4	18	-5	2%	·
O=C1N(Cc2cccc(Cl)c2)C[C@@H]2C[C@@H](c3cccn3-c3nccs3)N3CCC[C@@]123	-6%	-2.2	-9	5	?	-3

Filtered by structure, the entries above with a nitro group on carbon
SMILES	gsp antag	D2 agonist	Six1-Eya2 inh	D2 potentiator	gsp agonist	CtBP-E1A blk
CCOC(=O)c1nnn(-c2nonc2-n2cccc2)c1-c1cccc([N+](=O)[O-])c1	-3%	9.9	?	7	-49%[15.4 µM]	-22
O=C(Cc1ccc([N+](=O)[O-])cc1)Nc1cccc(C(F)(F)F)c1	2%	2.6	0	-5	?	3
